# Compound activity (PubChem BioAssay)
# GALR2 agonist = GALR2 receptor agonists, primary screen, cell-based. Galanin receptor type 2 (Homo sapiens), O43603. GALR2-expressing cells, agonist activation read-out. activation, %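 (tested at 5 µM)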. 0.48% of 140,000 active;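 active = above mean plus 3 SD of all compounds, about 5% in these data, not always enough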;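 also: 0% = vehicle buffer wells and 100% = reference agonist at full effect; tested in CHO reporter cells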
# Target sequence (O43603 whole entry, looked up): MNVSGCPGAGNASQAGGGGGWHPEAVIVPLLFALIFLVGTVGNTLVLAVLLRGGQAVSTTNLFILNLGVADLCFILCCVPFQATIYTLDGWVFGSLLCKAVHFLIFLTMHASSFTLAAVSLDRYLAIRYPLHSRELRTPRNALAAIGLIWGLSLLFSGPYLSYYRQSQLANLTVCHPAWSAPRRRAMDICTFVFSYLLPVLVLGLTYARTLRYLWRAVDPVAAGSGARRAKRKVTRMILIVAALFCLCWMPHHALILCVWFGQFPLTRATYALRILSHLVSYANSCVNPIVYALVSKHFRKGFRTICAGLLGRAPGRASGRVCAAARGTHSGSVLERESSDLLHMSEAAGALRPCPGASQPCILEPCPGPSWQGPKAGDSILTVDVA
# RGS16-Gao HTS = modulators of RGS16 binding to Galphao, primary screen, biochemical, human proteins, multiplexed bead flow cytometry. binding response (% of control), % at 10 µM. AID 1441, 2008. 0.38% of 220,000 active. bead-based flow cytometry RGS16-Galphao binding, fluorescence; actives lie on both sides;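 active = below 25% or above 175%, edge rows of some plates excepted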;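 also: Galphao activated by GDP with aluminum fluoride before binding; 100% = wells without compound and 0% = beads without RGS; some results beyond the cut were filed as inactive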
# Target sequence (O15492 whole entry, looked up): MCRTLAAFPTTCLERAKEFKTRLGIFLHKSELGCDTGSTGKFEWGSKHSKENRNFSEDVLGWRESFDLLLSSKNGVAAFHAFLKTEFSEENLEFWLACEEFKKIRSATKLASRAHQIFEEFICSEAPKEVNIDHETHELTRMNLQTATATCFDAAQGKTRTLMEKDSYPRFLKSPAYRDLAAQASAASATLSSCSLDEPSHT
# Target sequence (P09471 whole entry, looked up): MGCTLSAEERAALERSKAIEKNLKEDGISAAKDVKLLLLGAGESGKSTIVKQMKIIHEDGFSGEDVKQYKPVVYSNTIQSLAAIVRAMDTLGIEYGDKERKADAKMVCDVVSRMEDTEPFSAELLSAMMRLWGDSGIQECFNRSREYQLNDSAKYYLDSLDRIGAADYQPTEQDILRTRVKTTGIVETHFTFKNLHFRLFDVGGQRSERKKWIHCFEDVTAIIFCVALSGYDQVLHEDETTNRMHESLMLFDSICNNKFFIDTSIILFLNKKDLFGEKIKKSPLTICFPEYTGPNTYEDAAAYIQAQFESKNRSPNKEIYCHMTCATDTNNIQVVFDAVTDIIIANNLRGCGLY
# PKD1 kinase inh = inhibitors of human PKD1 kinase, biochemical, fluorescence polarization | 0.056% of 200,000 active | inhibition, %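 (about 10 µM by stock and volumes)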 | PKD1 kinase fluorescence polarization assay | Serine/threonine-protein kinase D1 (Homo sapiens), Q15139;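 active = inhibition of 50% or more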;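 also: controls were vehicle for no effect and a reference inhibitor for full effect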
# HSV augment = enhancers of HSV replication in host cells, fold increase, host cell viability | HSV replication augmentation in cells | maximum fold increase | 0.005% of 220,000 active | AID 1956, 2009;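 active = peak rise of 1.5-fold or more in the series; tested in PC3 cells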;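 also: first round at 10 µM; read as green reporter fluorescence; hits show the peak of a series up to 25 µM; 1 = signal of infected wells without compound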
# INS promoter inh = inhibitors of insulin promoter-driven GFP, primary screen, imaging, TRM-6 cells (human fetal islet line), eGFP reporter, cell count; reporter expression induced with tamoxifen; inhibition, % at 2 µM; 0.9% of 130,000 active; AID 1273, 2008;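 active = inhibition above the mean plus 3 SD, with well images judged a real hit on visual review, cut at about 60% in these data, passing the limit was not always enough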
# INS promoter inh cell count = also measured in INS promoter inh; calls as there; normalized cell count, %; measured here: cell count, toxicity; reference of the scale not given here;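 cells exposed to compound for 48 h; stained nuclei by imaging scaled within each plate; lower means fewer cells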
# HSV augment primary fold = recorded beside HSV augment, whose call it bears; fold increase; compound at 10 µM; measured here: primary screen fold increase 10 uM; tested in PC3 cells;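 GFP signal in the first replicate; 1 = infected wells without compound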
# * marks the source's active call; other numbers are inactive results; i = inactive; nt = no result given.
No.	structure	GALR2 agonist	RGS16-Gao HTS	PKD1 kinase inh	HSV augment
1	COc1ccc(N2CCN(C(=O)CSc3nnc4n3C(C)(C)Cc3ccccc3-4)CC2)cc1	-1.6	102.7	3.1	i
2	CC(=O)c1cc2c(cc1NS(=O)(=O)c1ccccc1C)OCO2	nt	108.3	4.7	i
3	COc1c(C)cc(NC(=O)c2ccc3c(c2)NC(=O)CO3)cc1C	nt	82.5	-7.6	i
4	Cc1ccc(NC(=O)c2ccc3snnc3c2)cc1	nt	102.4	-0.1	i
5	Cc1ccc(-c2nn(CC(=O)N3CCOCC3)c(=O)c3ccccc23)cc1S(=O)(=O)N(C)C	nt	152.2	nt	i
6	COc1ccc(NC(=S)N/N=C2/CCCc3c(C)cc(C)cc32)cc1	-4.2	100.1	3.0	i
7	CSCCC(C(=O)OCC(=O)c1ccc(C)c(C)c1)N1C(=O)c2ccccc2C1=O (centres undefined)	-1.4	114.9	-1.1	i
8	C/C(=N/NC(=O)CN1CCN(S(=O)(=O)c2ccc(Br)cc2)CC1)c1cccnc1	0.8	111.5	2.8	nt
9	COc1ccc(N(C)S(=O)(=O)c2cccc(C(=O)Nc3ccc(OC)nc3)c2)cc1	-1.0	115.2	-10.3	i
10	COc1cc(NC(=O)COC(=O)/C=C/c2ccc(O)c(OC)c2)cc(OC)c1	nt	114.2	3.7	i
11	O=C(CSCCN1C(=O)c2ccccc2C1=O)Nc1ccc2ccccc2c1	-1.2	102.5	-2.6	i
12	Cc1cc(-n2ccnc2)n2c(nc3ccccc32)c1C#N	0.1	83.6	-3.2	i

No.	HSV augment primary fold	INS promoter inh	INS promoter inh cell count
1	0.84	40.5	157.4
2	1.05	nt	nt
3	0.81	nt	nt
4	0.81	0.0	135.1
5	0.96	nt	nt
6	0.93	42.9	124.5
7	0.95	0.0	180.8
8	nt	nt	nt
9	0.75	-7.9	105.4
10	0.93	nt	nt
11	1.02	nt	nt
12	1.1	35.5	103.7

# An excerpt taken from the entries so far, for reference:
No.	structure	GALR2 agonist	RGS16-Gao HTS	PKD1 kinase inh	HSV augment
11	O=C(CSCCN1C(=O)c2ccccc2C1=O)Nc1ccc2ccccc2c1	-1.2	102.5	-2.6	i
12	Cc1cc(-n2ccnc2)n2c(nc3ccccc32)c1C#N	0.1	83.6	-3.2	i

No.	HSV augment primary fold	INS promoter inh	INS promoter inh cell count
11	1.02	nt	nt
12	1.1	35.5	103.7

# Entries above containing four or more nitrogen atoms, in the order listed:
No.	structure	GALR2 agonist	RGS16-Gao HTS	PKD1 kinase inh	HSV augment
1	COc1ccc(N2CCN(C(=O)CSc3nnc4n3C(C)(C)Cc3ccccc3-4)CC2)cc1	-1.6	102.7	3.1	i
5	Cc1ccc(-c2nn(CC(=O)N3CCOCC3)c(=O)c3ccccc23)cc1S(=O)(=O)N(C)C	nt	152.2	nt	i
8	C/C(=N/NC(=O)CN1CCN(S(=O)(=O)c2ccc(Br)cc2)CC1)c1cccnc1	0.8	111.5	2.8	nt
12	Cc1cc(-n2ccnc2)n2c(nc3ccccc32)c1C#N	0.1	83.6	-3.2	i

No.	HSV augment primary fold	INS promoter inh	INS promoter inh cell count
1	0.84	40.5	157.4
5	0.96	nt	nt
8	nt	nt	nt
12	1.1	35.5	103.7

# (listing goes on)
No.	structure	GALR2 agonist	RGS16-Gao HTS	PKD1 kinase inh	HSV augment
13	Cc1ccc(C(=O)NCC(=O)OCC(=O)NC(C)c2ccccc2)s1 (centres undefined)	nt	97.5	-3.3	i
14	O=C(Nc1nccs1)c1ccc(COc2ccccc2Br)o1	-0.3	99.8	-7.3	i
15	COc1ccc(N2CCN(C(=O)CCNS(=O)(=O)c3ccccc3)CC2)cc1	nt	102.2	9.3	i
16	COc1cc(CC(=O)Nc2nc(C)cs2)cc(OC)c1OC	nt	95.2	3.2	i
17	CCOc1ccc(OCC)c(-c2c(=O)n(OCc3ccccc3Br)c3ccccc3[n+]2[O-])c1	-3.0	103.1	9.4	i
18	COc1ccc(/C=C/C(=O)NCCSCc2ccco2)cc1OC	nt	98.4	nt	i
19	CCn1nnnc1NCc1ccc(OCc2ccc(F)cc2Cl)c(OC)c1	nt	101.0	4.4	i
20	c1ccc(Nc2ccccn2)nc1	nt	101.6	nt	i
21	C#CCO[C@@H]1C[C@H](n2ccc(NC(=O)c3ccccc3)nc2=O)O[C@@H]1CO	nt	99.1	nt	i
22	CCCCc1ccc(-c2ccc(Br)cc2)nc1	-1.3	nt	-1.0	i
23	COC(=O)c1ccc(NC(=O)CSc2ccccc2)cc1	-0.3	108.2	0.4	i
24	Cc1nc2nc(-c3cccnc3)[nH]n2c(=O)c1C	0.1	96.4	8.3	nt

No.	HSV augment primary fold	INS promoter inh	INS promoter inh cell count
13	1.02	nt	nt
14	0.73	-24.3	85.9
15	0.99	nt	nt
16	0.95	nt	nt
17	0.98	nt	nt
18	0.93	nt	nt
19	0.82	nt	nt
20	0.97	nt	nt
21	0.78	nt	nt
22	1.05	23.8	100.0
23	0.9	-10.3	129.6
24	nt	24.1	98.1

No.	structure	GALR2 agonist	RGS16-Gao HTS	PKD1 kinase inh	HSV augment
25	CCSCCOC(=O)C1=C(C)NC2=C(C(=O)CCC2)C1c1coc2ccccc2c1=O (centres undefined)	-1.1	100.3	-0.8	i
26	C#CCCOC(=O)N1C2=NC(C(=O)OC)=C(C(=O)OC)[C@@H]3N(C)c4ccccc4[C@]23C[C@H]1C(=O)OC	nt	101.7	nt	i
27	Cc1cccc(OCC(=O)OC2CCN(C)CC2)c1	-1.7	97.3	6.5	i
28	O=C(COC(=O)c1cccc(Br)c1)Nc1cccc2c1C(=O)c1ccccc1C2=O	nt	96.1	-3.0	i
29	Cc1ccc(C(=O)CSc2nnc3c4ccccc4nc(Cc4ccccc4)n23)cc1	0.0	111.3	0.2	i
30	Cc1cc(OCC(F)(F)C(F)(F)C(F)(F)C(F)(F)C(F)(F)C(F)F)nc(N)n1	-2.8	97.3	-3.5	i
31	Cc1cc(C)c(-c2noc(C(=O)OC(C)(C)C)c2C(=O)OC(C)(C)C)c(C)c1	-2.5	93.0	-13.2	i
32	Cc1ccsc1/C=C/c1ccc2cccc(O)c2n1	-1.3	104.4	-0.9	i
33	CCOc1ccc(NC(=O)C(C)SC(N)=O)cc1 (centres undefined)	-1.9	176.1	0.5	i
34	O=C1/C(=C/c2ccc(C(=O)O)cc2)CCC/C1=C\c1ccc(C(=O)O)cc1	-2.0	96.9	-6.7	i
35	Cc1ccc(C(=O)N/C(=C/c2ccc(-c3ccc(Br)cc3)o2)C(=O)NC2CCS(=O)(=O)C2)cc1 (centres undefined)	2.0	108.7	-13.6	i
36	CCOC(=O)C1=C(C)NC(=O)C(C(N)=O)C12CCCCC2 (centres undefined)	-1.4	103.4	-3.6	i

No.	HSV augment primary fold	INS promoter inh	INS promoter inh cell count
25	0.86	-5.0	93.9
26	0.86	nt	nt
27	1	-144.4	87.1
28	0.92	nt	nt
29	0.89	-93.3	116.3
30	0.96	-22.2	99.3
31	1.04	nt	nt
32	0.71	3.5	75.6
33	0.67	57.1	109.6
34	1.06	40.5	134.6
35	0.9	-20.7	100.4
36	1.03	-42.9	32.6

No.	structure	GALR2 agonist	RGS16-Gao HTS	PKD1 kinase inh	HSV augment
37	CCOC(=O)C1CCCN(c2cc(=O)n(-c3ccccc3Cl)c(=O)[nH]2)C1 (centres undefined)	-2.0	100.6	4.0	i
38	COCCn1c(C)cc(C2=NNC(=Nc3ccc(F)cc3)SC2)c1C	1.0	97.7	-2.5	i
39	CCOC(=O)C1=C(CNC(C)(C)CC(C)(C)C)NC(=O)NC1c1cccc([N+](=O)[O-])c1 (centres undefined)	nt	90.0	-4.3	i
40	Cc1cc(SCC(=O)N/N=C/c2ccc(O)c(O)c2O)c(C)cc1Br	-1.4	61.7	6.0	i
41	O=C(Nc1c(-c2ccccc2)nc2ccccn12)c1cccs1	0.2	98.6	-3.4	i
42	CCCC(=O)NC(C)c1nc2ccccc2n1C(C)C (centres undefined)	-0.8	102.9	-6.0	i
43	CCN1CCc2c(OCc3ccc(C(=O)OC)o3)cccc2C1=O	nt	92.8	-3.7	i
44	COc1ccc(S(=O)(=O)Nc2ccc(N(C)C(C)=O)cc2)cc1	0.1	104.8	4.4	i
45	COc1ccc(Oc2ccc(N/C=C/C(=O)C(C)(C)C)cc2)cc1	nt	100.5	-5.6	i
46	Cc1ccc(C(=O)c2c[nH]c3c(F)cc(F)cc3c2=O)cc1	-0.9	104.5	-3.5	i
47	Cc1ccc(S(=O)(=O)N(C)C)cc1NC(=O)c1ccc2ccccc2n1	nt	101.5	nt	i
48	C#CCNC(=O)C1=C[C@H](c2ccc(C(F)(F)F)cc2)C[C@H](OCc2ccc(CO)cc2)O1	nt	106.8	-4.2	i

No.	HSV augment primary fold	INS promoter inh	INS promoter inh cell count
37	0.88	-30.0	68.8
38	0.9	28.2	97.6
39	0.96	-45.0	85.5
40	0.94	-23.6	107.0
41	1.09	-3.7	74.4
42	0.57	nt	nt
43	0.9	-33.3	93.3
44	0.75	-103.5	62.8
45	1.16	nt	nt
46	1.06	23.3	117.4
47	0.96	nt	nt
48	0.8	nt	nt

No.	structure	GALR2 agonist	RGS16-Gao HTS	PKD1 kinase inh	HSV augment
49	O=c1nc(Nc2ccc(OCc3ccccc3)cc2)sc2ncccc12	nt	103.5	2.4	i
50	CCOC(=O)C(CC)Sc1ccc2nnc(CCNS(=O)(=O)c3ccccc3)n2n1 (centres undefined)	nt	101.6	4.8	i
51	CCOC(=O)c1cc2ccc3ccccc3c2s1	-1.9	105.7	-2.3	i
52	CCOC(=O)C1(Cc2cccc(OC)c2)CCN(Cc2cccnc2)CC1	nt	101.8	0.4	i
53	CCSc1n[nH]c(=O)[nH]c1=O	-1.5	90.3	2.2	i
54	Cc1ccc2nc(-c3ccc4c(c3)OCCO4)cc(C(=O)O)c2c1	-0.7	101.1	-0.8	i
55	COc1ccc(Cl)cc1N(CC(=O)NC(C(C)C)C(C)C)S(C)(=O)=O	-1.2	101.0	-2.3	i
56	CCOC(=O)c1sc2nc(SCC#N)n(CCCN3CCCC3=O)c(=O)c2c1C	-1.4	98.4	-1.8	i
57	O=C(Cc1ccccc1)Nc1nc(=O)c2ccccc2s1	-1.4	85.2	-3.8	i
58	CCCCn1c(=O)nc2n(-c3ccc(C)cc3)c3ccccc3cc-2c1=O	-0.7	58.1	-1.8	i
59	O=C(CSc1ccc([N+](=O)[O-])cn1)Nc1ccc(N2CCOCC2)c(Cl)c1	nt	101.4	-0.5	i
60	Cc1cccc(NC(=S)NC23CN4CN(CN(C4)C2)C3)c1	nt	112.7	-3.5	i

No.	HSV augment primary fold	INS promoter inh	INS promoter inh cell count
49	0.89	nt	nt
50	0.92	nt	nt
51	0.85	-7.7	69.5
52	0.81	-20.0	108.5
53	0.85	10.7	100.7
54	1.06	14.3	93.8
55	0.98	-43.3	86.6
56	0.82	-20.0	66.8
57	0.93	0.0	55.3
58	0.9	nt	nt
59	0.99	40.0	71.9
60	1.14	nt	nt

No.	structure	GALR2 agonist	RGS16-Gao HTS	PKD1 kinase inh	HSV augment
61	CCNC(=O)COC(=O)/C=C/c1cccc(F)c1	nt	99.9	-5.2	i
62	C/C(=N/NC(=O)CNS(=O)(=O)c1ccc(C)cc1)c1cccc([N+](=O)[O-])c1	nt	106.4	-0.7	i
63	Cc1cc(C(=O)N2CCN(c3ncccn3)CC2)nn1C	nt	96.9	nt	i
64	CCN(CC)CCn1c(N)cc(=O)[nH]c1=O	nt	109.2	-6.3	i
65	Nc1cc(C(=O)OCC(=O)NC(c2ccccc2)c2ccccc2)ccc1Cl	0.4	102.8	-15.8	i
66	Cc1cccc(NC(=O)c2ccc([N+](=O)[O-])o2)c1C	nt	100.5	-1.0	i
67	CSc1nnc(-c2ccco2)n1-c1ccccc1	-2.0	102.2	0.9	i
68	CC(C)N1CCN(Cc2coc3ccccc3c2=O)CC1CCO (centres undefined)	nt	102.7	-5.4	i
69	COc1ccc(C(=O)Nc2ccc(C(=O)OCC(=O)c3ccccc3)cc2)cc1	-2.9	109.7	-4.0	i
70	CN(C)Cc1nc2ccccc2c(=O)n1Cc1nc(-c2cccc([N+](=O)[O-])c2)cs1	nt	102.9	-0.9	i
71	O=S(=O)(Nc1nc2ccccc2nc1Cl)c1ccc2ccccc2c1	-1.7	104.7	-0.9	i
72	O=C(/C=C/c1ccco1)Nc1ccccc1N1CCCC1	nt	100.2	4.4	i

No.	HSV augment primary fold	INS promoter inh	INS promoter inh cell count
61	1.01	nt	nt
62	0.92	10.0	94.6
63	0.84	nt	nt
64	0.88	0.0	176.4
65	1.06	nt	nt
66	0.82	-41.7	25.9
67	0.93	14.3	76.4
68	1.02	33.3	135.2
69	1.01	nt	nt
70	1.05	nt	nt
71	1.03	33.3	114.0
72	1.12	nt	nt
